Screens: PubChem BioAssay, ICCB-Longwood Screening Facility, Harvard Medical School
S aureus helic: blocks Staphylococcus aureus DNA helicase; inhibition, %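 (tested at about 80 µM)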; purified S. aureus helicase, fluorescence unwinding assay; about half of the hits fall short of the stated cut; hit rate 0.05% among 120,000;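 active means both duplicates at 50% or more, or one of them with a favoured structure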;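 further: 0% = mean of negative control wells and 100% = mean of positive control wells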
MgrA-DNA mod: alters Staphylococcus aureus MgrA binding to DNA. fluorescence polarization. inhibition, %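 (about 10 µg/mL by stock and volumes)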. hit rate 0.13% among 84,000;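 active means above 50% in either of two replicates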;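 further: 0% = protein plus DNA without compound and 100% = DNA alone without protein; higher means less MgrA bound to DNA so lower polarization; one replicate is shown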
Active calls of the source: *; · = no result given.

SMILES | S aureus helic | MgrA-DNA mod
N#Cc1cnc(SCc2ccc(Cl)cc2)nc1N | · | -0.5
Cc1ccc(N(Cc2ccco2)S(=O)c2ccc3ccccc3c2)cc1 (stereo not drawn) | 7 | ·
CCOC(=O)C1CCN(c2ccccc2CN2CCN(Cc3ccccc3)CC2)CC1 | · | -0.2
COc1ccc(CCNC(=O)CSCc2n[nH]c(=O)[nH]2)cc1OC | 12 | 0.8
O=S(=O)(NCc1csc2ccc(Cl)cc12)c1ccccc1 | · | -1.6
CCOC(=O)C1CCN(C(=O)COC(=O)c2cccnc2Nc2ccccc2F)CC1 | 21 | ·
O=c1oc2ccccc2cc1-c1csc(Nc2ccc(F)cc2)n1 | -18 | ·
CN(C)c1ccc(C2Nc3ccccc3S2)cc1 (stereo not drawn) | · | 1.4
Cc1nn(-c2ccccc2)c(Cl)c1C=C(C#N)C#N | -7 | ·
Nc1ccc(Sc2nc3ccccc3[nH]2)c(Cl)c1 | 5 | -1.2
Nc1ccc(S(=O)(=O)Nc2cccc(C(F)(F)F)c2)cc1 | · | -2.1
O=C(COc1ccc2ccccc2c1CN1CCOCC1)N1CCc2ccccc21 | -7 | ·
OCCSC1SC(=S)SC1SCCO (stereo not drawn) | -18 | ·
CCc1ccc(NC(=O)CSc2nnc3[nH]c(=O)ccn23)cc1 | 0 | ·
O=C(COC(=O)C1CC1)c1ccc(OC(F)F)cc1 | -19 | ·
O=c1onc(-c2c(F)cccc2F)n1-c1cccnc1 | · | -0.4
Cc1ccccc1NC1CC(C)N(C(=O)CN2C(=O)c3ccccc3C2=O)c2c(C)cccc21 (stereo not drawn) | 18 | 1.2
O=C(CSC1CCCC1)c1ccco1 | 1 | 8.3
CCCN(CCC)Cc1csc2c1CCCC2 | 11 | 3.6
CCOC(=O)C1C(=O)C=C(c2ccco2)CC1c1ccc(CC)cc1 (stereo not drawn) | 8 | 2.5
CCCS(=O)(=O)Cc1nnc(-c2cc(Cl)cc(Cl)c2)o1 | · | -0.8
CC1CCCN(C2(O)C(=O)N(Cc3ccccc3)c3ccccc32)C1 (stereo not drawn) | -26 | ·
Cc1ccc(C)c(N2CCN(c3cc(C)nn4cnnc34)CC2)c1 | 7 | 5.8
Cc1cc(I)ccc1NC(=O)c1ccccc1N(C)S(C)(=O)=O | 9 | 0.3
CCCCN(C)C(=O)Cn1ncc2c1-c1ccccc1OC2 | -21 | ·
CC(C)CC(=O)NC(C)C(c1cccs1)N1CCN(c2ccccc2)CC1 (stereo not drawn) | -17 | ·
O=C(O)c1ccc2nc(N3CCCCC3)sc2c1 | 11 | 8.6
CC1=CC(=O)C(Br)=CC1=O | · | 30
CC1=NOC(=O)/C1=C/c1ccc(-c2ccc(Cl)cc2)o1 | 13 | ·
CC(C)NS(=O)(=O)c1ccc(Br)c(C(=O)OCC(=O)Nc2nnc(-c3ccccc3)o2)c1 | 18 | ·
COCC(=O)NCc1ccc2c(c1)OCO2 | -10 | -0.2
O=S(=O)(c1ccc(C(F)(F)F)cc1)n1nccc1-c1cc(-c2ccccc2)no1 | · | -2.4
Cc1nc(-c2ccc(CN)s2)cs1 | 8 | ·
COc1cccc(NC(=O)Cn2c(C(F)(F)F)nc3ccccc32)c1 | · | 2.5
NC(=O)c1c(NC(=O)CN2C(=O)S/C(=C/c3c(Cl)cccc3Cl)C2=O)sc2c1CCCC2 | · | 0.3
Cc1c(NC(=O)CCN2C(=S)NC(C)(C)CC2C)c(=O)n(-c2ccccc2)n1C (stereo not drawn) | -7 | 0.1
O=C(Oc1ccc(Cl)cc1)C1c2ccccc2Oc2ccccc21 | 16 | 0.4
CCOC(=O)c1ccc2c(c1)ncn2/C=C\NC(=O)c1ccc(Cl)cc1 | -9 | -2.3
O=C(Cn1ncc2ccccc21)Nc1cc(-c2cccc(Cl)c2)no1 | 3 | -0.2
COC(=O)c1ccsc1NC(=O)c1ccc(C)cc1 | · | -1.8
Cc1sc(-c2ccsc2)nc1-c1ccc(-c2ccccc2F)cc1 | · | 0.9
Cc1cccc(N(CC(=O)Nc2ccccc2)S(C)(=O)=O)c1C | 5 | 0.0
COc1ccc(N(C)C(=O)c2cn(CC(C)C)c(=O)c3cc(OC)c(OC)cc23)cc1 | 3 | 0.0
COC(=O)C1=C(C)NC(C)=C(C(=O)OC)C1C(=O)OCC(=O)Nc1cccc2nsnc12 | 4 | ·
O=C(Cc1ccc(F)cc1)N/N=C/c1ccc(C(=O)O)cc1 | -12 | ·
COCCn1c(SCc2nc3ccccc3o2)nc2ccccc21 | -10 | ·
COC(=O)c1ccc(OCC(O)CN2C(=O)c3ccccc3S2(=O)=O)cc1 (stereo not drawn) | · | 0.8
CCN(CC)C(=O)c1sc2nc3c(cc2c1N)C(=O)CC(C)(C)C3 | 18 | ·
O=S1(=O)CCN(Cc2ccco2)CC1 | · | -0.6
CN(C)c1ccc(C(=O)OCC(=O)Nc2ccc(F)cc2F)cc1 | 4 | 0.2
O=C1/C(=C/c2ccc(OC(F)F)cc2)NC(=S)N1Cc1ccco1 | -7 | ·
O=C(O)c1ccc(Oc2ccccc2)cc1 | -10 | -0.6
O=C(O)CC1=C(c2ccc(F)cc2)CCC1=O | -3 | 1.4
CC1=C(C(=O)Nc2cc(C)ccc2C)C(c2ccc(N(C)C)cc2)NC(=S)N1 (stereo not drawn) | 12 | 3.1
CCOCCC(=O)Nc1ccc2c(c1)OCCO2 | 12 | -0.2
O=C1c2cccnc2C(=O)N1CCc1ccc(S(=O)(=O)N2CCCC2)cc1 | 7 | 0.0
Cc1cc(C)cc(NC(=O)N2CCSc3ccccc32)c1 | 9 | ·
N#Cc1cccc(S(=O)(=O)N2CCCC2c2ccc3c(c2)OCCCO3)c1 (stereo not drawn) | -7 | ·
CN(C(=O)Nc1ccccc1)c1c2c(nn1C)CCCC2 | 22 | ·
COc1ccccc1/C=C1\SC(N2CCN(c3ccccc3)CC2)=NC1=O | 2 | ·
Remaining list, next part:
SMILES | S aureus helic | MgrA-DNA mod
CS(=O)(=O)c1ccc(NC(=O)c2ccc(Br)o2)cc1 | 5 | ·
CCOC(=O)c1cc(-c2ccccc2)n(CCC(=O)Nc2ccccc2N2CCN(C)CC2)c1C | 9 | ·
CC(C)(C)NC[C@@H](O)COc1nsnc1N1CCOCC1 | · | 2.2
Cc1nn2c(nc1=O)NNC2(C)c1ccccc1 (stereo not drawn) | 6 | 0.2
COc1cccc(-c2cc(C(=O)NCC(C)C)on2)c1 | 24 | ·
CC(C)CCNC(=O)c1cccc2c1-c1ccccc1C2=O | · | 0.4
COc1ccccc1CC(=O)Nc1ccc(-c2noc(COc3ccc(Cl)c(C)c3)n2)cc1 | -16 | 0.9
C=CCN(CC=C)CC(O)Cn1cnc2c1c(=O)n(C)c(=O)n2C (stereo not drawn) | · | -0.9
CC(=O)N1CCOc2ccc(S(=O)(=O)NCc3ccccc3)cc21 | -3 | ·
CC(=O)N1C=Cc2ccccc2C1CC(=O)O (stereo not drawn) | 9 | ·
CSc1ncc(C(=O)N2CCN(c3ccccc3F)CC2)c(C)n1 | -26 | ·
CC1CCCN(C(=O)Cc2cccc3ccccc23)C1 (stereo not drawn) | 4 | -0.3
Nn1cnnc1SCc1ccccc1 | 5 | 0.3
COC(=O)c1c(NC(=S)NCc2ccco2)sc2c1CCC2 | 5 | 8.1
Cc1nc2ncnn2c(C)c1CCC(=O)NC1=NCCS1 | 33 | ·
CC(C)(C)C(=O)Nc1ccccn1 | · | -3.4
O=C1CC(c2n[nH]c(=S)o2)CN1c1ccc(Cl)cc1 (stereo not drawn) | 39 | ·
COC(=O)CN1C=C(C(=O)OC)C(c2ccc(O)cc2)C(C(=O)OC)=C1 | 6 | 1.5
O=C(O)CCN=C1NC(=O)CS1 | 14 | -1.9
O=C(c1ccc(Br)o1)N1CCN(c2ccccc2)CC1 | 12 | 1.6
CSc1nnc(CNC(=O)c2cccs2)n1-c1cccc(Cl)c1 | 11 | ·
CCCNS(=O)(=O)c1ccc(OCC(=O)NCc2ccccn2)cc1 | 3 | -9.8
CCCc1c(C(=O)NCc2ccncc2)cnn1-c1ccccc1 | · | -0.1
COc1cc(C(=O)Nc2ccc3oc(-c4cccc(C)c4)nc3c2)cc(OC)c1OC | · | -2.1
C/C(CS(=O)(=O)c1ccc(Cl)cc1)=N\O | · | -2.0
CC1CCCC(NC(=O)CSC(=O)c2ccccc2)C1C (stereo not drawn) | -15 | 0.7
CCN(CC)c1c(C#N)c(SCC(=O)c2cccs2)cc2c1CCCC2 | 4 | -1.0
COc1ccccc1CN1COc2cc3c(cc2C1)OCO3 | -7 | 1.7
Cc1c(C(=O)NC2CCCCC2)sc2nc(-c3ccc(F)cc3)cn12 | -2 | ·
CC1Cc2ccccc2N1C(=O)COc1ccc(-n2cnnn2)cc1 (stereo not drawn) | -1 | ·
COc1ccc(NC(=O)CSc2nc(-c3ccccc3)cc(=O)[nH]2)cc1 | 1 | -1.2
Cc1onc(-c2c(Cl)cccc2Cl)c1C(=O)Nc1ccccc1Oc1ccc(Cl)cc1Cl | · | -0.2
CCOc1cc(/C=N/NC(=O)c2nnn(-c3nonc3N)c2C)ccc1OC(=O)N1CCOCC1 | 24 | ·
CCCCC(=C1C(=O)CCCC1=O)N1CCCC1 | 37 | ·
CCc1noc(C)c1C(=O)OCC(=O)c1ccc(Br)s1 | 3 | ·
Cn1nc(-c2ccccc2)cc1NC(=O)c1cc(Cl)sc1Cl | · | -0.2
Cc1ccc(S(=O)(=O)NCc2ccco2)c(C)c1C | -22 | ·
Cc1noc(C)c1COC(=O)C1c2ccccc2Oc2ccccc21 | 2 | ·
CNC(=O)c1ccc(N2C(=O)C3C4C=CC(C4)C3C2=O)cc1 (stereo not drawn) | -31 | ·
Cc1cc(C(=O)Nc2ccccc2C(=O)O)c(C)o1 | 3 | -0.6
Nc1nc(=Nc2ccccc2)ss1 | 1 | 17
Cc1cc2nc(Nc3ccccc3)c3ccccc3n2n1 | -3 | ·
Cc1noc(C)c1C(=O)N1CCCCC1c1ccccn1 (stereo not drawn) | · | 0.1
Cc1ccc(NC(=O)CC2Sc3ccc(C(F)(F)F)cc3NC2=O)c(C)c1 (stereo not drawn) | 5 | 0.1
c1ccc(-c2cnc(-c3ccccc3)cn2)cc1 | 9 | ·
O=C(NC1CCCCC1)C1C2C=CC3(CN(Cc4cccs4)C(=O)C13)O2 (stereo not drawn) | 8 | 0.7
O=C(O)c1cccc(S(=O)(=O)N2CCCCC2)c1 | · | -4.4
CN(Cc1ccccc1)C(=O)Nc1cn(C)c(=O)c2ccccc12 | -15 | ·
O=C(O)CC(CC(=O)Nc1cccc2c1CCCC2)c1ccccc1 (stereo not drawn) | · | -2.0
CC(C)c1nnc(NC(=O)C2CCN(C(=O)c3ccco3)CC2)s1 | 9 | 11
COc1cc2c(cc1OC)C(C)N(C(=O)/C=C/c1ccccc1)CC2 (stereo not drawn) | 9 | -1.9
O=C1Nc2ccccc2S/C1=C/Nc1ccc(Cl)cc1 | · | -0.8
Cn1c(-c2ccccc2)c(/C=N/NC(=O)C2CC2)c2ccccc21 | 16 | ·
Cc1ccc2c(n1)sc1c(=O)n(-c3ccccc3)nnc12 | -7 | ·
O=C1c2cccc3c(Br)ccc(c23)C(=O)N1CCc1ccccn1 | · | 3.3
O=S(=O)(NCC1CCN(S(=O)(=O)c2ccccc2)CC1)c1cccc(C(F)(F)F)c1 | -3 | ·
O=C(O)CCC1NC(=O)NC1=O (stereo not drawn) | -3 | 3.1
O=C1c2ccccc2-c2ncccc21 | · | -1.8
COCCN1C=C(C(=O)OC)C(c2ccccc2Cl)C(C(=O)OC)=C1 | 20 | ·
CCOC(=O)C1=C(C)NC(SCC(N)=O)=C(C#N)C1C1CC=CCC1 (stereo not drawn) | -3 | ·
(continued)
SMILES | S aureus helic | MgrA-DNA mod
O=C(O)CC1ON(c2ccccc2)C(=S)N1c1ccccc1 (stereo not drawn) | 4 | ·
Cc1c(-c2c(Cl)cccc2Cl)noc1C(=O)CN=S(C)(=O)c1ccc(C(F)(F)F)cn1 (stereo not drawn) | · | -0.3
CC(C)CN(CC(C)C)c1nnc(NC(=O)Cn2c(=O)oc3ccccc32)s1 | 7 | ·
O=C(NC1CCCCC1)[C@H]1CCCC[C@H]1C(=O)O | · | 1.2
O=C(COc1ncnc2ccc(Br)cc12)NCCN1C(=O)CSC1=O | -9 | ·
O=[N+]([O-])c1cc(C(F)(F)F)ccc1Oc1ccc(Cl)cc1Cl | · | 3.1
CC(C)(C)c1cc2c(=O)[nH]nc(N)c2c(=O)[nH]1 | -18 | ·
Cc1c(Cl)cccc1NC(=S)N(N)CCO | · | -2.1

At a glance, part of the list above:
SMILES | S aureus helic | MgrA-DNA mod
N#Cc1cnc(SCc2ccc(Cl)cc2)nc1N | · | -0.5
Cc1ccc(N(Cc2ccco2)S(=O)c2ccc3ccccc3c2)cc1 (stereo not drawn) | 7 | ·
CCOC(=O)C1CCN(c2ccccc2CN2CCN(Cc3ccccc3)CC2)CC1 | · | -0.2
COc1ccc(CCNC(=O)CSCc2n[nH]c(=O)[nH]2)cc1OC | 12 | 0.8
O=S(=O)(NCc1csc2ccc(Cl)cc12)c1ccccc1 | · | -1.6
CCOC(=O)C1CCN(C(=O)COC(=O)c2cccnc2Nc2ccccc2F)CC1 | 21 | ·
O=c1oc2ccccc2cc1-c1csc(Nc2ccc(F)cc2)n1 | -18 | ·
CN(C)c1ccc(C2Nc3ccccc3S2)cc1 (stereo not drawn) | · | 1.4
Cc1nn(-c2ccccc2)c(Cl)c1C=C(C#N)C#N | -7 | ·
Nc1ccc(Sc2nc3ccccc3[nH]2)c(Cl)c1 | 5 | -1.2
Nc1ccc(S(=O)(=O)Nc2cccc(C(F)(F)F)c2)cc1 | · | -2.1
O=C(COc1ccc2ccccc2c1CN1CCOCC1)N1CCc2ccccc21 | -7 | ·
OCCSC1SC(=S)SC1SCCO (stereo not drawn) | -18 | ·
CCc1ccc(NC(=O)CSc2nnc3[nH]c(=O)ccn23)cc1 | 0 | ·
O=C(COC(=O)C1CC1)c1ccc(OC(F)F)cc1 | -19 | ·

Some of the compounds tested, so the mix of outcomes need not match the whole.
